PINK1 expr mod: modulators of PINK1 expression | PINK1 immunofluorescence, high-content cytometry, 24 h | Potency, µM (titrated, usually from 76.6 µM), inactives show at the highest dose activation (PINK1 increase), most hits filed as activators | actives 0.2% (n = 410,000) | AID 624263; active = well fitted activation curve with a large enough effect; inconclusive = small, poorly fitted or top-dose-only effect; inactive = flat fitted curve, though single readings scatter; cell line not stated here;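 note: potency is the fitted concentration of half-maximal effect; % of control where 0% means no effect; nearly all actives have a fitted effect of over 65% in size; a mitochondrial uncoupler was the plate control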
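Fluorescence from anti-PINK1 antibody, together with nuclear and cell stains, was scanned on a laser-scanning cytometer. Before staining, stable-line cells were incubated 24 hours with compounds at 5 concentrations; primary antibody 12 h at 10 degrees C.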
TRPML1 agonist: human mucolipin-1 channel agonism; Q9GZU1; TRPML1-expressing cells, Ca2+ dye fluorescence, FDSS; host cell line not named in the record; reference of the full effect not given here; activation, % (test concentration not listed); actives 0.12% (n = 410,000); AID 624414; in the data active = activation above about 50%; inconclusive = about 30% to 50%; inactive = below about 30%; note: 0% is about no effect; the text of the record puts the active cut at 80%
Target sequence (Q9GZU1 whole entry, looked up): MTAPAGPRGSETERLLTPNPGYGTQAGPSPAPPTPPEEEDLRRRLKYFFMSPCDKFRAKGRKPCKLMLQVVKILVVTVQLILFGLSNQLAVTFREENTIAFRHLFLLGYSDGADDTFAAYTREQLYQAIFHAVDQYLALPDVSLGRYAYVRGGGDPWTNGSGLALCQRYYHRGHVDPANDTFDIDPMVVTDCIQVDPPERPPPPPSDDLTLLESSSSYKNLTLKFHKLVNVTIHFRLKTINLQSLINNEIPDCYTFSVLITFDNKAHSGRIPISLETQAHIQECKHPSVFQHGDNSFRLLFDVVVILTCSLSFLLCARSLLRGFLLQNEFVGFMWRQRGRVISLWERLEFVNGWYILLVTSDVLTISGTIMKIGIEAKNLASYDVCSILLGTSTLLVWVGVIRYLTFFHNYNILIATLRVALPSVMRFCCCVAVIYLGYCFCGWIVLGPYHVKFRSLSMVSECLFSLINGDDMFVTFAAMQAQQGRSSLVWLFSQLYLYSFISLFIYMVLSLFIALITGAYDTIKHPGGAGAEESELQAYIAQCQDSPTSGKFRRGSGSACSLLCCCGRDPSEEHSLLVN
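TRPML1-DL cells, Tet-induced overnight (~16 h, 37 degrees C), loaded 45-90 min at room temperature with Ca8 no-wash calcium dye plus quencher. FDSS fluorescence: 10 s baseline, compound pin-transfer, 110 s agonist read, then EC80 54-4 (4uM final) and 110 s antagonist read.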
D2 ag: agonists of human D2 dopamine receptor (beta-arrestin); DiscoveRx PathHunter D2 beta-arrestin, luminescence, 90 min; 100% = 57 uM dopamine signal; actives 0.084% (n = 360,000); activation, % (no concentration beside the values); P14416; AID 624465; in the data active = activation above about 40%; inconclusive = about 15% to 40%; inactive = below about 15%; note: compound concentration not given in the record; the text of the record calls up to 30% inactive
Target sequence (P14416 whole entry, looked up): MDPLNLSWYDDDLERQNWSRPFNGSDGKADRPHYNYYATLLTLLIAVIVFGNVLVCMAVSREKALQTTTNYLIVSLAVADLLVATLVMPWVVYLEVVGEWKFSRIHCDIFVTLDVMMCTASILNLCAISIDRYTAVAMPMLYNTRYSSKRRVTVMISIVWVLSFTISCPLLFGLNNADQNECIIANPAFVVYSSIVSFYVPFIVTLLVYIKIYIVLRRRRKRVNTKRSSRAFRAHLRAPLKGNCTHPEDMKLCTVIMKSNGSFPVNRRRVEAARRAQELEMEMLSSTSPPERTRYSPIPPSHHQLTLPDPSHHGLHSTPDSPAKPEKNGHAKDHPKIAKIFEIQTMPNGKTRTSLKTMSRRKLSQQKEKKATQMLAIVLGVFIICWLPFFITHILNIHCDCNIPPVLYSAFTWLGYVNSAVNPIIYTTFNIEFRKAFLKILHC
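Agonist mode: compounds alone added to overnight-plated D2 PathHunter cells for 90 min at 37 C, with 57 uM final dopamine (EC100) defining full response. Beta-arrestin recruitment detected by chemiluminescent reagent, read after 1 h at ambient temperature.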
D2 PAM: human D2 receptor positive allosteric modulation. actives 0.23% (n = 360,000). P14416. DiscoveRx D2 beta-arrestin cells, luminescence, 90 min; 100% = 57 uM dopamine signal. potentiation, % (concentration not given with the values). AID 624464; active = potentiation of 50% or more; inconclusive = 30% to 50%; inactive = 30% or less;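 note: compound concentration not given in the record; tested on top of an EC20 dose of dopamine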
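D2 cells co-treated with compound plus 50 nM dopamine (EC20) for 90 min at 37 deg C to detect potentiation. Beta-arrestin recruitment was read as enzyme-fragment luminescence after 1 h at ambient temperature. Full response was set by 57 uM dopamine.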
Six1-Eya2 inh: Six1/Eya2 interaction inhibition; actives 0.56% (n = 360,000); AlphaScreen GST-Six1/His-Eya2 binding, biochemical; hits give low values; control for the full effect not named in the record; Q15475+O00167; activity change, % (concentration not given with the values); in the data active = activity change below about -65%; inconclusive = about -30% to -65%; inactive = above about -30%; note: % is set by controls: 0 for no effect and ±100 for the full control effect
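AlphaScreen with GST-Six1 and His-Eya2 (5X mix: 250 nM and 500 nM), glutathione donor and nickel acceptor beads; buffer 50 mM Tris pH 8.0, 300 mM NaCl, 1 mM TCEP; 1 h at 37 C in the dark.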
TRPML1 inh: blocks the human TRPML1 channel; Q9GZU1; TRPML1-inducible cells, Ca2+ dye fluorescence, FDSS; hits give low values; inhibition of EC80 agonist-evoked calcium signal; activity change, negative = inhibition, % (test concentration not listed); actives 0.02% (n = 390,000); in the data active means activity change below about -50%; inconclusive means about -30% to -50%; inactive means above about -30%;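 note: stimulus is agonist 54-4 at its EC80 concentration; % is set by controls: 0 for no effect and ±100 for the full control effect; compound concentration not given in the record; the text of the record puts the active cut at -80%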
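Tet-induced TRPML1-DL cells loaded with Ca8 no-wash calcium dye were read kinetically on FDSS. Compound addition was followed by EC80 agonist 54-4 (4 uM final); inhibition was read over 110 s.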
Active calls of the source: *; ? = inconclusive; . = no result given; & = joins results of further samples; [ ] = another dose, or the depositor's remark.

SMILES	PINK1 expr mod	TRPML1 agonist	D2 ag	D2 PAM	Six1-Eya2 inh	TRPML1 inh
Cc1ccccc1NC(=O)CSc1nc(N)c(C#N)cc1C#N	1.2%[38.3 µM]	-0.3	-0.6	7	-2	-9
Nc1nnnn1/N=C/c1ccccc1OCc1ccc(Cl)cc1	2.8%	4.3	-1.1	-6	8	2
COc1nc(C)nc2c1sc1nc3c(cc12)COC(C)(C)C3	0.7%	0.0	-0.9	-10	-7	-6
Cc1cc(C)n2nc(S(=O)(=O)N(CC(C)C)CC(C)C)nc2n1	3.7%	1.1	-3.8	-4	-6	21
N#Cc1ccc(-c2nc3ccc(Cl)cn3c2Cc2ccccc2)cc1	0.5%	1.3	-6.0	-7	-4	71
Cc1cc(NS(=O)(=O)c2ccc(NC(=S)NC(=O)c3cccc(S(=O)(=O)N(C)C)c3)cc2)no1	1.5%	-0.1	-8.3	-18	-10	-3
Cc1ccc(C)n1Cc1ccccc1Cl	4.0%	0.4	0.1	-2	-6	22
COC(=O)c1ccc2nc(-c3ccc(OC)c(OC)c3)c(Cc3ccc(C)cc3)n2c1	6.8%	0.0	-5.5	-3	-1	.
CC(C)(C)C(=O)/C=C(\N)c1ccncc1	5.3%	1.5	0.7	3	-8	26
O=C(NC1CCCC1)C(c1ccco1)N(C(=O)c1ccco1)c1ccc(F)cc1 (configuration not stated)	4.6%	-1.1	4.1	-2	5	17
COc1ccc2sc3ccccc3c(=O)c2c1	-0.7%	0.3	-2.9	5	48	-2
COCNc1nc(OCC#N)nc(N(C)C)n1	-5.5%	0.4	0.0	-6	3	4
Cc1nc(SC2CCOC2=O)c2c(C)c(C)sc2n1 (configuration not stated)	-1.5%	0.2	-4.6	-3	-4	-22
O=[N+]([O-])c1cccc(-c2ccn[nH]2)c1	0.3%	0.2	-8.2	-3	-3	25
COc1ccc2c(Sc3ccc(C)cc3)c(C(=O)NC(C)c3ccccc3)[nH]c2c1 (configuration not stated)	2.7%	-0.2	.	.	.	1
CCOC(=O)CSc1nc(-c2ccccc2)ns1	-0.5%	4.3	-3.5	-3	64	-6
CC(=O)Nc1sc(N/N=C/c2ccccc2)nc1-c1ccc(C)cc1	-0.2%	-0.4	?	14	-1	18
COc1ccc(CNC(=O)C2CCN(S(=O)(=O)c3ccc(F)cc3)CC2)cc1	0.3%	-0.1	.	.	.	17
COc1cccc(CN(C)C(=O)CSCC(=O)Nc2ccc(C)cc2)c1OC	-1.2%	0.0	-2.0	-9	4	16
COC(CNC(=O)C(C)n1nc(C)c2ccccc21)OC (configuration not stated)	0.2%	-0.5	-5.5	0	2	-12
CCOC(=O)Cn1nc(C)n(-c2ccc(Cl)cc2)c1=O	-0.6%	0.7	-5.3	1	-1	-22
COc1ccc(C2CC(c3cccc(Br)c3)=NN2c2ccc(S(N)(=O)=O)cc2)cc1 (configuration not stated)	-0.9%	-0.7	-0.2	6	43	-9
COc1ccc(S(=O)(=O)NCCS(=O)(=O)N2CCN(c3ccccc3F)CC2)cc1	-1.1%	5.4	.	.	.	45
Cc1cc(C)cc(NC(=O)Nc2c[nH]c(=O)[nH]c2=O)c1	2.2%	-0.7	.	.	.	1
Cc1cc(C(=O)N/N=C/c2cccc([N+](=O)[O-])c2)c(C)n1-c1ccccc1	11%	1.8	2.2	-26	-9	7
CCOC(=O)N1CCC(NC(=O)CCCN2C(=O)CSc3ncccc32)CC1	4.9%	1.2	-0.1	9	-1	-13
CC(C)=CCN1CCN(CC#Cc2ccccc2)CC1CCO (configuration not stated)	0.0%	-0.8	-4.0	-19	-3	2
COc1ccccc1NC(=S)NCCc1c[nH]c2ccccc12	0.9%	-0.1	-2.1	-12	-23	9
Cc1cc(C)c(NS(=O)(=O)c2ccccc2)c(C)c1	2.7%	2.3	-0.8	-3	8	9
COC(=O)CN1C(=O)COc2ccc(Cl)cc21	-2.7%	1.4	-3.2	-4	8	9
O=S(=O)(c1cccs1)N1CCN(Cc2ccccc2)CC1	15%[38.3 µM]	-0.9	-2.7	3	5	0
Cc1nc(CNC(=O)c2ccccc2OC2CCN(S(C)(=O)=O)CC2)cs1	0.4%	0.0	0.6	-6	5	17
Cc1cc(C(F)(F)F)nc(SCC(=O)NC2CC3CCC2C3)n1 (configuration not stated)	-2.6%	0.4	-4.1	-10	3	19
CCOc1cc(/C=N/NC(=O)CN2CCCCC2)ccc1OCc1ccc(Cl)cc1	-1.6%	-0.4	-0.8	-5	-13	4
Cc1ccc(C(=O)c2c(NC(=O)c3ccncc3)sc3c2CCCC3)cc1	1.7%	1.3	0.3	-9	-5	-19
COC(=O)c1ccc(C(=O)OC)c(NC(=O)CSc2ccccn2)c1	4.0%[38.3 µM]	-0.1	-3.7	-8	0	4
CN(c1ccccc1)S(=O)(=O)c1cc(C(=O)OCC(=O)c2c(N)n(C)c(=O)n(C)c2=O)ccc1Cl	7.1%	0.8	1.7	-1	-16	0
CSc1cccc(CNC(=O)C2CCC(=O)N(CCCN3CCCC3=O)C2)c1 (configuration not stated)	-1.6%	0.0	3.9	-1	-7	-7
COc1ccccc1-c1ccccc1C1=CC(=O)CC(C)(C)C1=O	0.3%	-0.1	-9.9	1	2	-7
COCCn1c(C)cc(O)c(C(c2ccccc2)N2CCCCC2)c1=O (configuration not stated)	1.2%	-0.9	.	.	.	-2

Some of the entries so far, bar-delimited:
Structure | PINK1 expr mod | TRPML1 agonist | D2 ag | D2 PAM | Six1-Eya2 inh | TRPML1 inh
CN(c1ccccc1)S(=O)(=O)c1cc(C(=O)OCC(=O)c2c(N)n(C)c(=O)n(C)c2=O)ccc1Cl | 7.1% | 0.8 | 1.7 | -1 | -16 | 0
CSc1cccc(CNC(=O)C2CCC(=O)N(CCCN3CCCC3=O)C2)c1 (configuration not stated) | -1.6% | 0.0 | 3.9 | -1 | -7 | -7
COc1ccccc1-c1ccccc1C1=CC(=O)CC(C)(C)C1=O | 0.3% | -0.1 | -9.9 | 1 | 2 | -7

Carrying on.
SMILES	PINK1 expr mod	TRPML1 agonist	D2 ag	D2 PAM	Six1-Eya2 inh	TRPML1 inh
O=[N+]([O-])c1ccc(CSc2nnc(Cc3ccccc3)n2-c2ccc(F)cc2)cc1	-0.8%	1.8	-1.6	5	-12	31
Brc1ccc2nc(-c3ccccc3)c(Nc3ccc4c(c3)OCO4)n2c1	3.4%	1.9	.	.	.	-3
CCN(CC)c1ccc(C2C(C(=O)Nc3ccccn3)=C(C)NC3=C2C(=O)CC(C)(C)C3)cc1 (configuration not stated)	2.3%	0.2	-1.5	0	2	0
Cc1cc2c(C)nc(N/N=C/c3ccc([N+](=O)[O-])cc3)nc2o1	4.5%	1.1	2.1	-5	0	15
CCS(=O)(=O)N1CCN(C(=O)c2cccnc2)CC1	-1.6%	-0.5	-1.9	-10	1	10
CC(=O)C1C(c2ccccc2OC(F)F)NC(=O)NC1(O)C(F)(F)F (configuration not stated)	0.0%	-0.3	-1.1	-3	2	9
CCC1CC(=O)CCN1S(=O)(=O)c1ccc(C)cc1 (configuration not stated)	-0.2%	-0.1	1.1	.	2	8
CCN(CC(=O)Nc1ccc(NC(C)=O)cc1)C(=O)CN1C(=O)C2CCCCC2C1=O (configuration not stated)	-0.6%	0.4	-2.5	-4	8	7
COC(=O)c1ccccc1NC(=O)Cc1ccccc1OC	2.5%	1.1	-3.5	-10	10	7
O=C(NCCc1ccccc1)c1ccc(CS(=O)(=O)c2ccc(Cl)cc2)o1	0.4%&-0.2%	0.4&1.7	-2.7	-12	6	-9&-16
FCCCOc1ccc(/C=N/OCc2ccc(Cl)cc2)cc1	12%	0.1	-2.1	0	96	3
Cc1cc(Cl)ccc1OC(C)C(=O)OCC(=O)Nc1ccc2[nH]c(=O)[nH]c2c1 (configuration not stated)	4.1%	-0.8	1.8	0	-5	3
CC1CCN(S(=O)(=O)c2nnc(NC(=O)c3cccc(Cl)c3)s2)CC1	12%&0.2%	-0.2&-0.6	-1.5	5	0	-2&9
O=C(NC(=S)Nc1ccc(N2CCOCC2)c(Cl)c1)c1cncc(Br)c1	-0.5%	-0.5	-5.6	-7	-3	4
COc1ccc(Cc2nc3ccc(C(=O)NCCCN4CCN(C)CC4)cc3o2)cc1	0.6%	0.1	.	.	.	15
CN(C)C(CNC(=O)c1cccc(S(=O)(=O)NCc2ccccc2)c1)c1ccco1 (configuration not stated)	-2.4%	0.3	-5.7	-21	-6	0
COC(=O)CC1SCCNC1=O (configuration not stated)	6.6%[38.3 µM]	0.3	0.2	2	3	7
Cc1ccc(Cl)cc1N1CCN(C(=O)c2ccc(C)c(-n3c(C)nc4cccnc43)c2)CC1	2.5%	12	.	.	.	-13
CCC(CC)CN1C(N(C)C)=NC[C@@H]1CC(C)C	-0.6%	0.4	-3.8	-7	1	2
Cc1nn(CC(=O)Nc2nccs2)c(C)c1[N+](=O)[O-]	1.5%	-0.5	-2.7	-14	-5	24
C(=N\n1cnnc1)/c1ccc(OC2CSC2)cc1	-3.4%[38.3 µM]	-0.4	-2.1	-11	17	-3
CCOC(=O)Cc1ccc(NC(=O)c2ccc([N+](=O)[O-])cc2)cc1	1.0%	0.4	8.4	-8	-2	10
CCC(C)NC(=O)c1c(C)oc2ncn(CC(C)C)c(=O)c12 (configuration not stated)	0.5%	-0.5	.	.	.	13
CCC(=O)c1c[nH]c(C(=O)N2CCOCC2)c1	-0.1%	-0.8	-7.5	-7	6	-12
COC(=O)N/N=C/c1c[nH]c2ccccc12	2.0%	0.1	1.3	-7	-5	-30
Cc1ccc(N2C(=O)C3C4C=CC(CC4)C3C2=O)cc1Cl (configuration not stated)	1.2%	-0.7	-2.0	-7	2	-7
c1ccc2c(CNCCN3CCOCC3)cccc2c1	-1.4%	-0.3	-1.5	-13	0	-11
CC(=O)Nc1sc2c(c1C(c1ccccn1)N1CCN(C)CC1)CCCC2 (configuration not stated)	-0.3%	-0.6	-3.1	-6	0	-9
COc1nccnc1NS(=O)(=O)c1ccc(NC(=S)NC(=O)c2ccccc2)cc1	0.7%	0.0	-3.3	-14	-12	1
Cc1cc(C)cc(C(=O)NCC(=O)OC(C)C(=O)N(C)c2ccccc2)c1 (configuration not stated)	0.8%	1.6	-2.3	-4	0	1
CC1(C)OC(=O)C(=CNNc2c(Cl)cc(Cl)cc2Cl)C(=O)O1	11%	-0.4	-1.1	4	10	27
Cc1ccc(-c2cc(-c3ccc(F)cc3)c(C#N)c(N)n2)o1	11%	0.4	14	0	-4	-17
COc1ccc(CC(=O)N(C)Cc2ccc(OC(F)F)cc2)cc1S(=O)(=O)N1CCOCC1	0.8%	-0.4	-1.1	3	20	-9
Cc1ccc(C(NC(=O)CN2C(=O)NC3(CCCC3)C2=O)c2ccccc2)cc1 (configuration not stated)	-0.2%	-0.6	-3.5	-2	7	32
CCc1cc2cc(C)cc(C)c2nc1SCC(=O)NNC(=O)c1ccco1	4.9%	0.9	-0.8	1	6	-25

Taken from above:
Result of CN(c1ccccc1)S(=O)(=O)c1cc(C(=O)OCC(=O)c2c(N)n(C)c(=O)n(C)c2=O)ccc1Cl in D2 PAM: -1
Result of Cc1cc(C(=O)N/N=C/c2cccc([N+](=O)[O-])c2)c(C)n1-c1ccccc1 in D2 PAM: -26
